# miR-21 reporter = raises the signal of a miR-21 reporter; HeLa miR-21 FLuc reporter, luciferase, 48 h; Potency, µM (series often up to 38.3 µM), for the others: at the highest dose reporter change, positive = more light; 340,000 tested, under 10 active; AID 2288; active = well fitted rising curve with a large enough effect; inconclusive = small, poorly fitted or top-dose-only effect; inactive = no such curve, though single readings can be large or run the other way;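 also: % of control where 0% means no effect; miR-21 action dims this reporter so a rising signal means less miR-21 action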
#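 Luminescence from a firefly luciferase reporter carrying a miR-21 binding site downstream, stably expressed under a CMV promoter in HeLa cells that make miR-21 endogenously, reports miRNA modulation after 48 h compound exposure up to approximately 40uM final.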
# GLA inh pH 4.5 = alpha-galactosidase A (human) inhibition, pH 4.5 | P06280 | purified enzyme, 4-MU-alpha-Gal fluorescence, pH 4.5 | activity change, negative = inhibition, % at 105 µM | AID 1467 | 230,000 tested, under 10 active; inconclusive = small, poorly fitted or top-dose-only inhibition, or a rising curve; inactive = flat fitted curve, though single readings scatter; no compound was filed as active;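 also: 0% = full activity with enzyme and -100% = basal without enzyme; dose as in the result columns while the protocol names 77 µM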
# Target sequence (P06280 whole entry, looked up): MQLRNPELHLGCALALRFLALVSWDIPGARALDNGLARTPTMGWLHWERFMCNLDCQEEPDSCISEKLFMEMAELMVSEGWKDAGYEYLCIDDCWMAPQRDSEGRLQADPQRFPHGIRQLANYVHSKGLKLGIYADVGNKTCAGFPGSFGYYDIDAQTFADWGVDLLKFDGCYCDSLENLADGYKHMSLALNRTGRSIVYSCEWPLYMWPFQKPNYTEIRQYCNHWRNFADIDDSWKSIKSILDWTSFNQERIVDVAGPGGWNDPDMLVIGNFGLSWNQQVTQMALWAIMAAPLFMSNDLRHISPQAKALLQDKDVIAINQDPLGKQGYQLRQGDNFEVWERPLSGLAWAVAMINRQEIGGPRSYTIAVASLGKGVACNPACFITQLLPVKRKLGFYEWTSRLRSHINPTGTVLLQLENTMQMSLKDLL
# Rango release inh = inhibitors of RanGTP-induced Rango-importin beta complex dissociation. Potency, µM (highest dose often 46.1 µM), for the others: at the top dose activity change, negative = inhibition. AID 540253. 340,000 compounds, 0.071% hits. Biochemical FRET Rango-importin beta, RanGTP-induced dissociation. O95149+P62826; active means falling FRET ratio curve, often poorly fitted, with flat reads before Ran was added; inconclusive means other falling curves, or compound fluorescence or quenching; inactive means flat or rising ratio curve;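 also: potency is read from the fitted curve at half-maximal effect; % of control where 0% means no effect; nearly all actives have a fitted effect of over 45% in size; -100% = wells without RanGTP and RCC1; the record marks most hits as doubtful in a second field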
#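 Compounds sat 5 min at room temperature with 0.1 uM Rango biosensor plus 0.25 uM importin beta, then FRET pre-read. RanGTP-RCC1 (0.6 uM Ran, 2mM GTP, 0.2 uM RCC1) added for 45 min, and the CFP/YFP post-read measured blocked complex dissociation.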
# Rango-impB inh = Rango-importin beta binding inhibition; Q14974; Rango CFP/YFP FRET sensor + importin beta, 45 min; Potency, µM (series often up to 92.2 µM), inactives show top-dose inhibition of complex formation; 340,000 compounds, 0.031% hits; active = rising FRET ratio curve, often small or poorly fitted; inconclusive = mostly compound fluorescence or quenching in the first reads; inactive = flat curves in all reads;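 also: potency is read from the fitted curve at half-maximal effect; 0% = DMSO wells and 100% = buffer wells lacking importin beta; nearly all actives have a fitted effect of over 15% in size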
#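 FRET biosensor (snurportin 1 IBB flanked by EYFP and cerulean), 50 nM, with compound 5 min, then 0.125 microM importin beta in PBS, 1 mM DTT, 0.02% Tween-20, 0.1% BSA. CFP/YFP ratio read after 45 min at room temperature; pre-read flags interference.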
# * = called active by the depositor; ? = inconclusive; / = no result given; & = joins results of further samples. Some of the compounds tested; rates above refer to the full screens.
SMILES,miR-21 reporter,GLA inh pH 4.5,Rango release inh,Rango-impB inh
O=C(N/N=C/c1ccc(-c2cccc([N+](=O)[O-])c2)o1)[C@H]1C[C@@H]1c1ccccc1,-1.5%,-5.6,1.9%,-3.5%
CCOc1ccc2nc(NC(=O)c3ccc(C)o3)sc2c1,/,/,-20.5%,-5.4%
CC(C)OC(=O)CSc1nc(Cc2cccs2)nc2ccccc12,-4.2%,-13.6,3.8%,4.0%
CCOc1ccc(NC(=O)c2ccc(NC(=O)CSc3nc4ccccc4c(=O)[nH]3)cc2)cc1,-3.0%,-1.0,-8.6%,0.3%
CC(C)CCN1C(=O)c2cccc3c(N)ccc(c23)C1=O,/,/,?,?
CCCC1CCc2[nH]nc(C(=O)NN)c2C1 (stereo not given),/,/,-2.5%,2.6%
Cc1ccc(-c2nnc(OCc3nc4ccccc4n3C)c3ccccc23)cc1,/,/,-11.0%,3.2%
Clc1ccc(CSc2nncn2-c2ccccn2)cc1,-18.0%,-21.9,6.1%,-0.1%
Cc1ccccc1NC(=S)NCCc1ccccn1,-5.7%,-8.8,-12.7%,2.6%
Cc1cccc(C)c1OCCSc1n[nH]c(N)n1,-0.9%,-1.9,6.7%,-1.1%
CCCC1c2ccc(C)n2CCN1C(=O)Nc1ccc(F)cc1 (stereo not given),-21.7%,5.0,?,?
COC(=O)CCN(C(=O)c1ccc(OC(C)=O)cc1)c1ccccn1,0.9%,1.9,1.1%,-0.8%
CCn1c(CC(=O)Nc2cccc(OC)c2)nnc1SCC(=O)N1CCN(c2ccccc2)CC1,-0.9%,-2.1,30.4%,5.5%
CC(C)(C)c1ccc(CSc2nc(N)cc(=O)[nH]2)cc1,-18.0%,/,2.1%,1.4%
CC1CCN(C(=O)COc2cccc3c2CCN(Cc2ccccc2)C3=O)CC1,14.0%,-4.6,6.7%,1.3%
O=C(c1ccco1)N1CCCC(Nc2ccc3c(c2)OCCO3)C1 (stereo not given),-35.6%,/,?,-1.4%
O=C(CCN1CCN(c2ccccc2F)CC1)Nc1cccc(F)c1,3.8%,/,8.6%,-0.9%
CCOc1ccc(S(=O)(=O)n2cc(-c3ccc(F)cc3)c(N)n2)cc1,-3.9%,0.6,-1.2%,0.1%
Nn1c(SCC(=O)Nc2nccs2)nnc1C1CC1,-0.1%,/,10.4%,-0.1%
O=C(OC(C(=O)NCC1CCCO1)c1ccccn1)c1cccs1 (stereo not given),0.3%,-3.5,-14.8%,1.3%
CCOc1ccc(CN2CCN(Cc3cnc(-c4ccccc4)s3)CC2CCO)cc1 (stereo not given),24.7%,6.8,3.5%,3.6%
CCc1ccc(NC(=O)CSc2nc(=O)n(CCCN3CCOCC3)c3c2CCC3)cc1,/,/,-14.3%,-0.8%
CCOc1ccc2nc(NC(=O)c3ccccn3)sc2c1,27.6%,6.8,0.4%,1.1%
Cc1ncc([N+](=O)[O-])n1CCOC(=O)C12CC3CC(CC(C3)C1)C2,-0.2%,-6.1,21.6%,0.0%
O=C(NCc1ccccn1)c1ccc(Br)s1,-29.3%,11.8,3.7%,4.4%
SMILES,miR-21 reporter,GLA inh pH 4.5,Rango release inh,Rango-impB inh
COc1ccc(F)cc1C(=O)C1CCCN(C(=O)c2ccc(C(C)=O)s2)C1 (stereo not given),-10.1%,/,-9.7%,4.6%
O=C1/C(=C/c2ccccc2)CCC1C1CCCC1 (stereo not given),-13.5%,-16.8,17.0%,0.7%
C(=NOCCc1ccccc1)c1ccccn1,/,/,5.3%,-2.6%
O=C(CSc1nc(N2CCOCC2)nc(N2CCOCC2)n1)Nc1ccccc1F,-4.3%,/,-2.3%,0.6%
CC1CN(Cc2nc3c(c(=O)n(C)c(=O)n3C)n2Cc2ccccc2)CC(C)O1 (stereo not given),-1.0%,0.5,-14.8%,-0.2%
N#C/C(=C\Nc1ccccn1)S(=O)(=O)c1ccc(Cl)cc1,-2.1%,-2.7,-15.3%,?
Cc1nnn(C23CC4CC(CC(CC(=O)Nc5ccc(C)c(C)c5)(C4)C2)C3)n1,-7.5%,-2.5,-0.2%,1.1%
CCOc1ccc(NC(=O)CS(=O)(=O)c2cn(CC)c3ccccc23)cc1,-9.2%,-4.4,-7.7%,-3.9%
COCCOCC(=O)Nc1ccc(S(=O)(=O)Nc2cc(C)nc(C)n2)cc1,-0.5%,/,-7.4%,-4.0%
O=C(C1CCN(c2nnc(-n3cccc3)s2)CC1)N1CCc2ccccc2C1,-6.9%,8.1,7.7%,-1.8%
O=C(C1CC1)N1CCc2cc(S(=O)(=O)N3CCCc4ccccc43)ccc21,-8.1%,1.2,-12.6%,-0.4%
COc1ccccc1C1CCN(C(=S)Nc2ccc(Br)cc2)CC1,8.4%,-7.9,4.7%,-0.1%
O[C@@H]1C2CCCC1[C@]1(O)CCCCC1C2 (stereo not given in full),-3.6%,-1.4,-8.6%,-2.1%
Cc1ccccc1N=Nc1c(O)n(C)c2ccccc12,-1.9%,/,-17.2%,-0.7%
CCN(CC)C(=O)c1cccc(NC(=O)C2=COCCO2)c1,/,/,-14.1%,4.2%
O=C(Nc1c(C(=O)N2CCOCC2)oc2ccccc12)c1ccccc1Cl,3.4%,/,-0.2%,-0.4%
O=C1CCc2ccccc2O1,/,/,-0.2%,2.1%
Cc1ccc(-c2n[nH]c(=S)c3ccccc23)cc1S(=O)(=O)NCC1CCCO1 (stereo not given),2.3%,/,-6.4%,0.3%
CCC(C)Sc1cc(-c2nc3cc(C)ccn3c2NC2CCCCC2)ccc1OC (stereo not given),/,/,-24.3%,?
CCOc1cc(/C=N/Nc2nc(N3CCCC3)nc(N3CCCC3)n2)ccc1O,5.2%,-7.3,17.7%,0.3%
CC(C)(C)C(=O)NCCN1C(=O)S/C(=C\c2ccc([N+](=O)[O-])cc2)C1=O,-0.5%,-11.7,7.3%,0.4%
O=C(O)C(c1ccccc1)N1C(=O)/C(=C\c2ccc(O)c(O)c2)SC1=S (stereo not given),13.9%,/,?,?
Cn1c(C2CCCCC2)nc2cc(N)ccc21,-5.0%,/,1.4%,-1.3%
COCc1c(C(=O)N/N=C\c2ccccn2)nnn1-c1nonc1N,0.5%,/,-9.5%,-0.4%
O=C(NCC1CCCCC1)c1ccccc1[N+](=O)[O-],-0.3%,/,0.6%,-0.6%
SMILES,miR-21 reporter,GLA inh pH 4.5,Rango release inh,Rango-impB inh
CCC(c1nnnn1C1CCCC1)N(Cc1cccs1)Cc1cc2cc(C)ccc2[nH]c1=O (stereo not given),-5.2%,-10.9,-0.6%,1.6%
Cc1cc(NC(=O)CN2C(=O)NC(C)(c3ccc(OC(F)F)cc3)C2=O)no1 (stereo not given),-1.5%,-1.0,12.4%,-0.9%
O=C(NC(=S)N1CCN(Cc2ccc3c(c2)OCO3)CC1)c1ccc(Cl)cc1,-13.4%,3.0,-1.8%,-6.0%
Cn1nc(-c2ccc(OCC(=O)Nc3ccccc3)cc2)c2ccccc2c1=O,24.6%&19.8%,-16.1,4.4%,0.0%
Cc1sc(NC(=S)NC(=O)c2cccs2)nc1-c1ccc(C(C)C)cc1,-6.2%,-1.9,-0.6%,-2.5%
Cn1cc(CNC(=O)COc2ccc(Cl)cc2Cl)cn1,-9.3%,-2.1,2.8%,-1.3%
COc1ccc(/C=C/C(=O)Nc2sc3c(c2C(=O)NCc2cccnc2)CCCC3)cc1,-0.2%,9.3,?,?
CCOC(=O)CSc1nc2ccccc2c(=O)n1CCC(=O)NCCc1ccc(OC)c(OC)c1,-3.3%,5.2,11.9%,?
Cc1ccc2sc(NNC(=O)c3ccc4c(c3)OCCO4)nc2c1C,-10.0%,-2.0,-8.2%,-5.0%
CCC(=O)NC(c1ccc(Cl)cc1Cl)c1ccc2cccnc2c1O (stereo not given),13.2%,/,?,?
C=CCNC(=O)c1onc(CSc2ccccn2)c1C(=O)NCC=C,1.9%,-0.8,1.6%,-1.0%
COc1c(F)c(F)c(C(=O)O)c(Nc2cccc(C)c2)c1F,-0.1%,8.0,-5.0%,1.5%
COc1ccc(CCN2C(=O)CC(N3CCN(C/C=C/c4ccccc4)CC3)C2=O)cc1OC (stereo not given),1.6%,1.6,-11.6%,-4.2%
CC1CCC(NC(=O)CCNC(=O)c2ccc(Br)cc2)CC1 (stereo not given),/,/,12.8%,0.7%
CC1(C)CC(=O)c2cnc3c(C#N)cnn3c2C1,4.2%,2.7,-0.8%,-4.5%
CCOc1ccc(S(=O)(=O)NCc2ccc(C)cc2)c2cccnc12,-4.8%,0.5,5.5%,-1.0%
Cc1cc(NC(=O)CSc2nnc(CNC(=O)c3ccc(F)cc3)o2)no1,-0.9%,/,2.3%,-0.3%
CC(=O)NC1C(Oc2ccc(C)cc2)OC2COC(c3ccco3)OC2C1O (stereo not given),-8.8%,7.6,34.1%,0.6%
Cc1c(OCC(=O)N2CCC(C(=O)NCCCC(=O)O)CC2)ccc2c1oc(=O)c1ccccc12,0.2%,/,14.0%,?
O=C(COc1ccc(N2CC(C(=O)O)CC2=O)cc1)Nc1cccc(C(F)(F)F)c1 (stereo not given),-2.5%,-0.3,-8.0%,?
Cc1ccc(NC(=O)COC(=O)c2cc(Cl)ccc2Cl)c(Br)c1,-4.3%,0.6,21.3%,-2.0%
COc1ccc(Nc2nc(C)nc3c2oc2ccccc23)c(OC)c1,-23.9%,/,-4.4%,-2.6%
O=C(OCC(=O)N1CCOCC1)c1ccc(Cl)c(S(=O)(=O)N2CCc3ccccc32)c1,/,/,2.2%,-0.8%
COC(=O)c1ccc(N=Cc2c(-c3ccccc3)[nH][nH]c2=O)cc1,-10.2%,-3.7,8.3%,-0.7%
CCc1sc(C(C2C(=O)CC(C)(C)CC2=O)C2C(=O)CC(C)(C)CC2=O)cc1[N+](=O)[O-],15.0%,-11.0,23.3%,2.5%

# Entries shown so far with a tert-butyl group (2):
SMILES,miR-21 reporter,GLA inh pH 4.5,Rango release inh,Rango-impB inh
CC(C)(C)c1ccc(CSc2nc(N)cc(=O)[nH]2)cc1,-18.0%,/,2.1%,1.4%
CC(C)(C)C(=O)NCCN1C(=O)S/C(=C\c2ccc([N+](=O)[O-])cc2)C1=O,-0.5%,-11.7,7.3%,0.4%

# Going on with the list.
SMILES,miR-21 reporter,GLA inh pH 4.5,Rango release inh,Rango-impB inh
CCc1cc2c(=O)c(-c3ccc4c(c3)OCO4)coc2c(CN(C)C)c1O,-11.0%,/,-8.7%,0.3%
CCNc1nc(NCC)n2c(SCC(=O)Nc3cc(Cl)ccc3OC)nnc2n1,/,/,-19.0%,-2.9%
C=CCN1CCN(c2ccncc2S(=O)(=O)N2CCCCC2)CC1,-5.1%,/,6.8%,0.2%
Cc1oc2cc(O)cc(C)c2c(=O)c1-c1cnn(-c2ccccc2)c1,-2.7%,5.6,9.7%,0.0%
Cc1cccc(NC(=O)c2c(O)c3cccc4c3n(c2=O)CCC4)n1,2.8%,0.6,/,/
S=C1Cc2ccccc2N1,?,0.4,17.4%,0.6%
Clc1ccc(C2CC(c3cccs3)n3ncnc3N2)c(Cl)c1 (stereo not given),-4.3%,3.2,-7.1%,1.0%
COC(=O)CN1C(CN2CCOCC2)=Nc2ccc(Br)cc2C1c1ccccc1 (stereo not given),-2.3%,7.7,10.5%,1.5%
CC(Oc1cccc(Cl)c1)C(=O)Nc1cc(S(=O)(=O)N2CCOCC2)ccc1N1CCCC1 (stereo not given),/,/,-8.2%,-0.3%
COc1ccc(-n2c(SCC(=O)N3CCCCC3C)nnc2-c2cccnc2)cc1 (stereo not given),1.6%,5.0,-2.6%,3.6%
Cn1c(Cn2c(=O)sc3ccccc32)nnc1SCC(=O)Nc1ccc(Cl)cc1,-5.2%,-1.2,-0.8%,0.7%

# Reprinted at random: four compounds from above, in no set order.
SMILES,miR-21 reporter,GLA inh pH 4.5,Rango release inh,Rango-impB inh
C(=NOCCc1ccccc1)c1ccccn1,/,/,5.3%,-2.6%
Cc1c(OCC(=O)N2CCC(C(=O)NCCCC(=O)O)CC2)ccc2c1oc(=O)c1ccccc12,0.2%,/,14.0%,?
C=CCN1CCN(c2ccncc2S(=O)(=O)N2CCCCC2)CC1,-5.1%,/,6.8%,0.2%
Cc1ccc(-c2n[nH]c(=S)c3ccccc23)cc1S(=O)(=O)NCC1CCCO1 (stereo not given),2.3%,/,-6.4%,0.3%

# Compound activity from PubChem.
